LT uptake inh – inhibitors of anthrax lethal toxin internalization; Potency, µM (titrated, usually from 40 µM), for the others: at the highest dose activity change, negative = inhibition, usual class: inhibitors; AID 912; hit rate 0.67% among 70,000; Cells, anthrax lethal toxin internalization, FRET ratio (460/530); active = well fitted falling ratio curve with the 530 nm signal flat; inconclusive = other ratio curves, or a change in one channel alone; inactive = flat curves in the ratio and both channels; the % refers to the ratio; further: on the % scale 0 is the no-effect control and ±100 the full control effect; nearly all actives have a fitted effect of over 50% in size; tested in ME-180 cells; beta-lactamase reporter
Prx2 Sm inh – Schistosoma mansoni Prx2 inhibition; hit rate 0.07% among 65,000; Potency, µM; S. mansoni Prx2 activity coupled to TGR/GSH (TGR is thioredoxin glutathione reductase), NADPH fluorescence loss, qHTS; some inactives read as strong as hits; active means full or partial inhibition curve with a strong effect at the top dose; inconclusive means weaker partial or single-point curve; inactive means no accepted curve; further: series up to 57 µM; many of its hits are not listed in these tables
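Activity is read as the drop in NADPH fluorescence (365/450 nm), recorded every 30 sec for 8 min after H2O2 addition. Prx2 is coupled to TGR-driven NADPH oxidation through glutathione, in phosphate buffer pH 7.4.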
Active calls of the source: *; ? = inconclusive; · = no result given; & = joins results of further samples; [ ] = remark or other dose. Potency means the concentration at half of the fitted maximal effect. An excerpt, so the mix of outcomes need not match the whole.

Molecule,LT uptake inh,Prx2 Sm inh
CNC(=O)NC(=O)COC(=O)CCCOc1ccc(OC)cc1,12.4%,>57
O=c1c(O)c(-c2cc(O)c(O)c(O)c2)oc2cc(O)cc(O)c12,?,>57&>57&>57
CCN(CC)S(=O)(=O)c1ccc(N2CCCC2)c(C(=O)OCC(=O)/C(C#N)=C(\C)N)c1,1.8%,>57
COc1ccc(CCN2CNc3c(c(=O)n(C)c(=O)n3C)C2)cc1OC,25.5%,>57
CCN1C(C)=C(C(=O)OC)C(c2ccccc2)N2C(=O)[C@](O)(C(=O)OC)CC(C(C)=O)=C12 (some centres undefined),-9.5%[8 µM],·
COC(=O)C1=C(C)N(Cc2ccccc2)C2=C(C(=O)c3ccccc3)C(c3ccccc3)[C@@](O)(C(=O)OC)C(=O)N2C1c1ccccc1 (some centres undefined),?,·
CCOC(=O)C1CCN(C(=O)Cn2cc(C#N)c3ccccc32)CC1,-0.1%,>57
Cc1sc2nc(SCC(=O)Nc3c(C)n(C)n(-c4ccccc4)c3=O)n(C)c(=O)c2c1C,6.1%,>57
COC(=O)[C@@]1(Cc2ccccc2)[C@H]2c3cc(C(=O)N4CCCC4)n(Cc4ccc(S(C)(=O)=O)cc4)c3C[C@H]2CN1C(=O)c1ccccc1,?,>57
CCNc1nc(C)c2cc(Br)c(=O)n(CC)c2n1,-12.7%,·
O=C1C=C[C@@H](O)[C@H]2[C@@H]3C(=O)N(Cc4ccccc4)C(=O)[C@@H]3CC[C@H]12,-5.6%[8 µM],·
CCOC(=O)COc1ccc(S(=O)(=O)NCc2ccncc2)cc1,-7.3%,>57
CCCS(=O)(=O)N1CCCC(C(=O)NCCCN2CCN(c3ccc(F)cc3)CC2)C1 (centres undefined),-2.8%,>57
CCCC(=O)NC(C)C(c1cccs1)N1CCN(c2ccccc2)CC1 (centres undefined),-3.2%,>57
Cc1ccc(SCCC(=O)N2CCCC2)cc1,?,>57
O=C(c1cnccn1)N1CCC[C@@]2(CCN(Cc3ccncc3)C2)C1,?,>57
Cc1nnc(NC(=O)CSc2nc3c(c(=O)n2CCc2ccccc2)SC(C)C3)s1 (centres undefined),-6.3%,>57
COc1ccc(-c2cc(C(=O)NCCc3ccccc3)no2)cc1OC,2.0%,>57
Cn1c(=O)c2c(SCC(=O)N3CCCc4ccccc43)nc(C3CC3)nc2n(C)c1=O,3.3%,>57
CC(=NCc1ccccc1)C1=C(O)COC1=O,9.1%,·
c1ccc(Cn2ncc3c2ncn2nc(-c4ccncc4)nc32)cc1,?,>57
CC(C)[C@@]1(NC(=O)[C@@H]2C[C@H]3c4cccc5[nH]cc(c45)C[C@@H]3N(C)C2)O[C@]2(O)[C@H]3CCCN3C(=O)[C@H](Cc3ccccc3)N2C1=O,-12.8%[3.58 µM],>57
CC1CCCC(C(=O)OCc2ccccc2)N1 (centres undefined),-3.9%,>57
CCOc1ccc(C(=O)Nc2c(C(N)=O)oc3ccccc23)cc1,-5.1%,>57
Cc1ccc(Cn2ccc(NC(=O)c3cc(-c4cccs4)on3)n2)cc1,-8.9%,>57
O=c1c2cc(N3CCOCC3)ccc2[nH]c(=S)n1CCN1CCCC1,11.6%,>57
COc1cccc(-n2c(C)nc3c(cnn3-c3ccc(Cl)cc3)c2=O)c1,10.7%,>57
CCN(CC)S(=O)(=O)c1ccc2oc(C(=O)N3CCCCCC3)c(C)c2c1,-12.1%,>57
COc1ccc(S(=O)(=O)N2CCCC2C(=O)Nc2nccs2)cc1 (centres undefined),·,>57
Cc1cnc(CNc2ncnc3ccc(-c4ccccc4CN(C)C)cc23)cn1,?,>57

3 structures out of the list, arranged by formula weight, high to low.
Molecule,LT uptake inh,Prx2 Sm inh
COC(=O)[C@@]1(Cc2ccccc2)[C@H]2c3cc(C(=O)N4CCCC4)n(Cc4ccc(S(C)(=O)=O)cc4)c3C[C@H]2CN1C(=O)c1ccccc1,?,>57
CCCC(=O)NC(C)C(c1cccs1)N1CCN(c2ccccc2)CC1 (centres undefined),-3.2%,>57
O=c1c(O)c(-c2cc(O)c(O)c(O)c2)oc2cc(O)cc(O)c12,?,>57&>57&>57

Gathered by group, those above containing a cyano group
Molecule,LT uptake inh,Prx2 Sm inh
CCN(CC)S(=O)(=O)c1ccc(N2CCCC2)c(C(=O)OCC(=O)/C(C#N)=C(\C)N)c1,1.8%,>57
CCOC(=O)C1CCN(C(=O)Cn2cc(C#N)c3ccccc32)CC1,-0.1%,>57

Later entries:
Molecule,LT uptake inh,Prx2 Sm inh
Cc1cc(=O)oc2c(N)c(O)ccc12,11.0%,>57
CCCC(c1nnnn1C(C)(C)CC)N(CCCO)Cc1cc2cc(C)cc(C)c2[nH]c1=O (centres undefined),6.4%,·
COc1ccc(OC)c(C(C)NC(C)=O)c1 (centres undefined),-9.6%,>57
CCCCC(C(=O)O)C(C)CC(=O)Nc1ccn(-c2ccccc2)n1 (centres undefined),1.3%,>57
Nc1nc(NCCc2ccc(O)cc2)nc2nc(-c3ccco3)nn12,?,>57
COc1cccc(C2C(C(=O)OC(C)C)=C(C)Nc3ncnn32)c1 (centres undefined),9.7%,>57
N#C/C(=C\Nc1ccc2c(c1)OCCO2)c1nc2ccccc2[nH]1,-29.6%,>57
C=CCOc1ccc2c(c1)c(S(=O)(=O)c1ccc(C)cc1)cn2COC,?,>57
COc1ccc(OC)c(NC=C2C(=O)OC(C)(C)OC2=O)c1,6.7%,>57
Cc1ccc(C(C)C)c(OCCn2c(=O)oc3ccccc32)c1,?,>57
CC1C=CCC2C(=O)N(c3cccc(C(=O)N4CCN(c5ccc(F)cc5)CC4)c3)C(=O)C12 (centres undefined),-8.1%,>57
Cc1ccc(C)c(S(=O)(=O)C(C#N)c2nc3ccccc3nc2N2CC(C)OC(C)C2)c1 (centres undefined),-1.1%,>57
O=C1CC(N2CCOCC2)C(=O)N1c1cccc(Cl)c1 (centres undefined),4.5%,>57
CN1CCc2ccccc2C1C1CCNCC1 (centres undefined),?,>57
Cc1nn(CCc2nc(-c3ccco3)cs2)c2[nH]c(=O)cc(C(F)(F)F)c12,1.6%,>57
O=C1c2c(O)cccc2Cc2cccc(O)c21,-1.7%,·
CCOC(=O)C1CCN(C(C(=O)Nc2ccc3c(c2)OCCO3)c2ccccc2)CC1 (centres undefined),9.6%,>57
CCN(CC)S(=O)(=O)c1ccc(NC(=O)Cn2c(=O)oc3ccccc32)cc1,-17.3%,>57
NC(=O)C1CCN(C(=O)CN2CCc3ccccc32)CC1,0.2%,>57
Cc1ccc(C2=Nc3ccccc3S[C@@H](c3cccc([N+](=O)[O-])c3)C2)cc1,?,>57
CCC(NC(=O)NCc1ccc2c(c1)OCO2)(C(F)(F)F)C(F)(F)F,-13.8%,>57
CC(NS(C)(=O)=O)C(c1cccs1)N1CCN(C)CC1 (centres undefined),-5.5%,>57
CC(C)(C)N(Cc1cc2ccccc2[nH]c1=O)C(=O)C1CCCCC1,·,>57
c1ccc(-c2cc(-c3nc(-c4ccccn4)no3)c3ccccc3n2)cc1,?,>57
O=C(O)CCn1nnc(-c2cccs2)n1,0.0%,>57
CN1CCN(C(c2cccnc2)c2ccc3cccnc3c2O)CC1 (centres undefined),?,>57
O=C(O)c1cc(-c2ccc(Cl)cc2)n[nH]1,-4.6%,·
CCN(CC)c1ccc(NC(=O)c2cncc(Br)c2)cc1,-17.8%,>57
O=C(COc1ccc(Cl)cc1)N1CCN(Cc2ccccc2)CC1,-5.9%,>57
Cn1c(=O)c2c(nc(CN3CCCCC3)n2CCc2ccccc2)n(C)c1=O,?,>57

Later entries
Molecule,LT uptake inh,Prx2 Sm inh
CCOc1ccc(C2C(C(=O)O)c3ccccc3C(=O)N2CCN2CCOCC2)cc1 (centres undefined),-3.3%,>57
COc1ccc(-n2nnnc2SCC(=O)c2ccc3c(c2)OCCO3)c(OC)c1,4.4%,>57
CC(=O)NC(Cc1ccc(F)cc1)C(=O)NC1CCN(c2nnnn2-c2ccccc2)CC1 (centres undefined),-0.4%,>57
CCOC(=O)C1=C(N)OC2=C(C(=O)CCC2)C1c1cccs1 (centres undefined),20.1%,·
CCCOC(=O)CSc1nc(N)c(C#N)c(CC)c1C#N,?,·
COc1ccc(OCc2nn3c(-c4ccccn4)nnc3s2)cc1,3.8%,>57
O=C(OCCCc1ccncc1)c1ccc(S(=O)(=O)N2CCOCC2)cc1,9.6%,>57
COC(=O)Nc1cccc(OC(=O)Nc2cccc(C)c2)c1,2.5%,·
CCOC(=O)c1c(C)oc2c1cc(O)c1ccccc12,-11.4%,>57
CCCc1cc(=O)[nH]c(SCc2ccccc2)n1,17.4%,>57
COc1ccc(Cc2n[nH]c(=O)c3ccccc23)cc1OC,-2.2%,>57
CCC(=O)Nc1ccc(Cl)c(NC(=O)c2cccnc2)c1,1.0%,>57
O=C(Nc1ccc(CN2CCOCC2)cc1)c1ccc(-c2ccc(Br)cc2)o1,12.6µM*,>57
CCOC(=O)N1CCC(NS(=O)(=O)c2ccc3c(c2)CCN3C(C)=O)CC1,-3.9%,>57
CCN(C(=O)C1CCCCC1)c1nnc(-c2cccnc2)s1,-7.7%,>57
Cn1c(=O)c(-c2ccc(F)cc2)nc2cnc(Oc3ccccc3)nc21,?,>57
Cn1c(C(=O)N2CCCc3ccccc32)cc2sccc21,-14.2%,>57
CC(=O)NC(C)C(=O)OCC(=O)c1ccc(Cl)s1 (centres undefined),?,>57
N#CCCn1c(=O)c(-c2ccccc2)nc2cnc(Nc3ccccc3)nc21,?,>57
Cc1cnc(C(=O)OCC(=O)NC2CCCCC2)cn1,-8.0%,>57
COCCCNC(=O)C1CC(=O)N(Cc2ccc(OC)cc2)C1 (centres undefined),-2.1%,>57
C=CCOC(=O)C1C(=O)CC(C)(O)C(C(=O)OCC=C)C1c1ccc(OCC)cc1 (centres undefined),-11.1%,·
c1ccc(-c2nc(C3CCCCC3)no2)cc1,-23.0%,>57
CC[N+](CC)(CCNC(=O)C(=O)NCC[N+](CC)(CC)Cc1ccccc1Cl)Cc1ccccc1Cl,?,>25.6
Cc1oc2c(c1C(=O)NCc1cc(C(=O)O)co1)CCCC2,-8.3%,>57
Nc1nc2ccc(Oc3ccccc3)cc2s1,-21.6%,>57
NCc1ccccc1CC(=O)N[C@@H]1C(=O)N2C(C(=O)O)=C(CSc3nnnn3CC(=O)O)CS[C@@H]12,0.6%[3.58 µM],>57
CCn1c(SCC(=O)Nc2nnc(C)s2)nnc1-c1ccco1,-9.8%,>57
CCC/C=C(\CCC)C(NC(=O)Oc1ccc(F)cc1)c1ccc(C(=O)OC)cc1 (centres undefined),-7.9%,>57
CN(C)CCN1C(=O)C(=O)/C(=C(/O)c2ccccc2)C1c1ccccc1F (centres undefined),-8.3%,·

(more compounds)
Molecule,LT uptake inh,Prx2 Sm inh
COc1ccc(CNC(=O)c2ccc(CN3CCOCC3)cc2)cc1,7.3%,·
CC(=O)N1CCc2cc(S(=O)(=O)NCCC(=O)NC3CCN(Cc4ccccc4)CC3)ccc21,8.1%,>57
CCOC(=O)c1sc(-c2ccc(OC)cc2)cc1N,-9.1%,>57
Cc1ccc(S(=O)(=O)N2CCN(C(=O)CSc3nc4ccccc4c(=O)[nH]3)CC2)cc1,-5.3%,>57
CC1(C)C2CC=C(/C=N/n3cnnc3)C1C2 (centres undefined),14.5%,>57
O=S(=O)(c1ccc(-c2ccccc2)cc1)N1CCOCC1,8.1%,>57
Oc1c(Cl)cc(Cl)cc1CN1CCN(Cc2ccccc2)CC1,?,·
CCOC(=O)C1CCCN(Cc2ccccc2C)C1 (centres undefined),?,>57
CO[C@H]1COC(=O)[C@H]2CCCN2C(=O)C/C=C\[C@@H](C)[C@H](OC)COC(=O)[C@@H](OCc2ccccc2)/C=C\[C@@H]1C,-2.3%[8 µM],·
O=C(CN(C1CCCCC1)S(=O)(=O)c1ccccc1)NCc1cccnc1,-16.4%,>57
O=c1c2ccccc2nc(SCc2nnc(-c3ccccc3Br)o2)n1-c1ccccc1,14.8%,>57
Cc1nnc(SCCn2c(N3CCCC(C)C3)nc3c2c(=O)n(C)c(=O)n3C)s1 (centres undefined),-19.9%,>57
CCN(CC)Cc1cc2ccccc2c2c1COC2,3.6%,>57
O=C(C1CCCN(S(=O)(=O)c2ccccc2)C1)N1CCCCCC1 (centres undefined),11.3%,·
O=C(NC1(C(F)(F)F)NC(=O)N(Cc2ccco2)C1=O)c1cccnc1 (centres undefined),-15.3%,>57
O[C@H](CCCN1CCN(c2ncc(F)cn2)CC1)c1ccc(F)cc1,?,>57
Cc1[nH]c(=O)[nH]c(=O)c1S(=O)(=O)N1CCCC(C(=O)NCCc2ccc(Cl)cc2)C1 (centres undefined),7.0%,>57
Cc1ccc(S(=O)(=O)NC(CC(=O)NC2CCCC2)c2ccco2)cc1 (centres undefined),1.3%,>57
c1ccc2oc(SCc3cn4ccsc4n3)nc2c1,-10.7%,>57
COc1ccccc1CCn1cnc2c3cc(C)ccc3n(C)c2c1=O,2.1%,>57
C=CCn1c(N)c(C(=O)NCC2CCCO2)sc1=S (centres undefined),4.0%,>57
CCCC(=O)NCCCc1nc2ccccc2n1CC,0.3%,>57
